Screening results: PubChem, National Center for Advancing Translational Sciences (NCATS)
Sfp PPTase inh: Sfp phosphopantetheinyl transferase inhibition | hit rate 3.5% among 310,000 | Q9F4F7 | Potency, µM, without a hit: max response, negative = inhibition, usual class: inhibitors | Biochemical Sfp PPTase activity, qHTS | AID 1490; active = well fitted inhibition curve with a large enough effect; inconclusive = small, poorly fitted or top-dose-only effect, or another doubt; inactive = no such curve, though single readings can be large or run the other way;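 note: the enzyme is Sfp with the accession as filed and its product quenches rhodamine fluorescence; potency is the fitted concentration of half-maximal effect; 0% = enzyme reaction without inhibitor and -100% = no enzyme wells; top concentration of the series not given in the record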
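After 15 min at room temperature with compound, 15 nM Sfp received 5 uM rhodamine-CoA plus 12.5 uM BHQ-2-ybbR (50 mM Hepes pH 7.6, 10 mM MgCl2). Rate came from the fluorescence difference over 30 min, ex 525/em 598 nm.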
ClpP mod: qHTS Assay for Activators of ClpP | ATP-dependent Clp protease proteolytic subunit (Bacillus subtilis (strain 168)), P80244 | Potency, µM (top dose mostly 57.5 µM), for the others: at the top dose activity change, negative = active | AID 651965, 2013 | purified B. subtilis ClpP, FRET peptide cleavage, 20 min | hit rate 1.9% among 340,000; active = well fitted falling curve with a large enough effect; inconclusive = small, poorly fitted or top-dose-only effect; inactive = no such curve, though single readings can be large or run the other way; note: potency is the fitted concentration of half-maximal effect; the source files actives as falling curves though it sought activators and does not explain the sign; nearly all actives have a fitted effect of over 65% in size; many hits overshoot -100%
Target sequence (P80244 whole entry, looked up): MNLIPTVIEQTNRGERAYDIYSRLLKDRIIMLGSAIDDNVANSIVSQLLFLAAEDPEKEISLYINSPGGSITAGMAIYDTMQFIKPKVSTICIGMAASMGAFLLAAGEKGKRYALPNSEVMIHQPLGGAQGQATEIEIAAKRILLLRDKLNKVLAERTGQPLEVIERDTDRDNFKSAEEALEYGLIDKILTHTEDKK
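FRET quenching reversal measured ClpP activation: 10 microg/mL B. subtilis ClpP at pH 8 with the FRET-FV decapeptide, read at 430 nm after 320 nm excitation. The 20-min minus 0-min signal was scaled between DMSO/no-enzyme wells and ADEP (5.8 microM final).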
TRPML1 blocker: blocks the human TRPML1 channel. hit rate 0.02% among 390,000. activity change, negative = inhibition, % (no concentration beside the values). Q9GZU1. AID 624415. TRPML1-inducible cells, Ca2+ dye fluorescence, FDSS; hits give low values; inhibition of EC80 agonist-evoked calcium signal; in the data active means activity change below about -50%; inconclusive means about -30% to -50%; inactive means above about -30%;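 note: stimulus is agonist 54-4 at its EC80 concentration; % is set by controls: 0 for no effect and ±100 for the full control effect; compound concentration not given in the record; the text of the record puts the active cut at -80%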
Target sequence (Q9GZU1 whole entry, looked up): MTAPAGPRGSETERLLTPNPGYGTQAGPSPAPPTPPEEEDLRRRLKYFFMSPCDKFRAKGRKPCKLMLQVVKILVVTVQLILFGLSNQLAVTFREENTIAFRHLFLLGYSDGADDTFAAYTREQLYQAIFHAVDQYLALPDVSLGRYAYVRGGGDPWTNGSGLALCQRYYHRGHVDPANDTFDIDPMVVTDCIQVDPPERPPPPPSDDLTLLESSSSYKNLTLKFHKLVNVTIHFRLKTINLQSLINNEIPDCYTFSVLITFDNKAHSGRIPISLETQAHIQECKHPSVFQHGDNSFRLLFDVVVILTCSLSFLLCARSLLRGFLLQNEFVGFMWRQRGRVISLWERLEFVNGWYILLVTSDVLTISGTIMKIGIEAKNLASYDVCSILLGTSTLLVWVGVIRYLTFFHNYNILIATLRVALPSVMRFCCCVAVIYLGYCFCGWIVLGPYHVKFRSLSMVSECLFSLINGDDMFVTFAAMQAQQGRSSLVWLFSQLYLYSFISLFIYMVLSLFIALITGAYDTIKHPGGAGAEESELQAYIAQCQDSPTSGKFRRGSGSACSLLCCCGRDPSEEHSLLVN
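TRPML1-DL cells, Tet-induced overnight (~16 h, 37 °C) at 1,500 cells/well, were loaded with Ca8 no-wash dye plus quencher for 45-90 min at room temperature. Compounds were pinned during FDSS kinetic reading; agonist 54-4 at EC80 (4 uM final) then added.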
TRPV1 PAM: human TRPV1 potentiation; Q8NER1; TRPV1-expressing cells, Fluo-8 calcium influx, capsaicin EC20 potentiation; host cell line not named in the record; control for the full effect not named in the record; potentiation, % at 8.33 µM; hit rate 0.02% among 320,000; AID 540277; active means potentiation above 80%; inconclusive means 30% to 80%; inactive means below 30%; note: 0% is about no effect
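TRPV1-expressing cells were cultured overnight at 35.5C and loaded with Fluo-8 calcium dye for 40 to 90 min at room temperature. After a 10 s baseline, compound was added and calcium influx was read kinetically for 3 min (ex 480/em 520 nm).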
PINK1 modulator: changes PINK1 expression. PINK1 immunofluorescence, high-content cytometry, 24 h. Potency, µM (highest dose often 76.6 µM), inactives show at the top dose activation (PINK1 increase), most hits filed as activators. hit rate 0.2% among 410,000. AID 624263; active = well fitted activation curve with a large enough effect; inconclusive = small, poorly fitted or top-dose-only effect; inactive = flat fitted curve, though single readings scatter; cell line not stated here;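 note: potency is the fitted concentration of half-maximal effect; % of control where 0% means no effect; nearly all actives have a fitted effect of over 65% in size; a mitochondrial uncoupler was the plate control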
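A stable cell line was treated with compounds at 5 concentrations for 24 hours, with CCCP as control. PINK1 levels and mitochondrial localization were measured by immunofluorescence with mitochondrial, cell and nuclear markers after fixation, read by laser-scanning cytometry.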
TRPML1 ag: agonists of human TRPML1 channel | TRPML1-expressing cells, Ca2+ dye fluorescence, FDSS; host cell line not named in the record; reference of the full effect not given here | activation, % (concentration not given with the values) | hit rate 0.12% among 410,000 | AID 624414; in the data active = activation above about 50%; inconclusive = about 30% to 50%; inactive = below about 30%; note: 0% is about no effect; the text of the record puts the active cut at 80%
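Tetracycline-induced TRPML1-DL cells are seeded and incubated overnight before loading with a no-wash Ca2+ dye and quencher. Agonist activity is taken from the 110 s fluorescence read following compound pin-transfer on an FDSS, before EC80 54-4 challenge.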
Menin-MLL FL inh: inhibitors of human menin-MLL interaction, wild-type MLL peptide; 290,000 tested, under 10 active; Fluorescence polarization, fluorescein-MLL peptide displacement from menin; FP activity change, % at 61.4 µM; inconclusive = falling polarisation curve, or a change in total fluorescence; inactive = total fluorescence flat and polarisation flat or rising; no compound was filed as active; the % refers to the polarisation; negative = inhibition;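 note: % of control where 0% means no effect; inhibitors lower the polarisation; unlabelled MLL peptide was the positive control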
* marks the source's active call; other numbers are inactive results; ? = inconclusive; . = not tested or not shown; & = joins results of further samples; [ ] = another dose, or the depositor's remark. Not a hit list (roughly 4.4% active in at least one column).

SMILES | Sfp PPTase inh | ClpP mod | TRPML1 blocker | TRPV1 PAM | PINK1 modulator | TRPML1 ag | Menin-MLL FL inh
CN1C(=O)Cc2cc(S(=O)(=O)N3CCN(c4ccc(Cl)cc4)CC3)ccc21 | 13% | -0.4%&-0.9% | 12&29 | 0 | 1.7%&0.6% | -0.2&-0.5 | .
Cc1ccc(/C=c2\sc3nc(-c4ccco4)nn3c2=O)o1 | 25µM* | 1.9% | -8 | 5 | 3.0% | -0.7 | ?
Cc1ccc(C)c(OCC(=O)NNC(=O)C2CC2)c1 | 2% | -0.4% | -15 | -11 | -0.4% | 1.2 | .
O=c1c2ccccc2sn1-c1cc(S(=O)(=O)N2CCOCC2)ccc1N1CCOCC1 | 0.71µM* | 1.5%&-0.9% | -6 | 2 | -0.7% | 1.3&1.9 | 4.9
C/C(=N\NC(=O)c1ccoc1C)c1ccc(Br)s1 | 9% | -5.2% | -7 | -25 | 1.1% | 0.1 | .
CN(C)C(CNC(=O)C1CCCN(C(=O)c2ccc(Cl)cc2)C1)c1ccco1 (stereo not given) | -8% | -2.3% | -11 | -9 | -1.1% | 1.1 | 1.3
NC(=O)C1CCN(Cc2cccc(OCc3ccccc3)c2)CC1 | 3% | -2.4% | 6 | ? | 0.8% | 1.0 | 2.4
CCOC(=O)C1=C(CN2CCN(c3cccc(OC)c3)CC2)NC(=O)NC1c1ccc(OC)cc1 (stereo not given) | . | -0.5% | 15 | . | 25% | 2.3 | .
N#Cc1ccc(CSCC(=O)O)cc1 | 11% | -1.6% | 42 | 23 | . | 0.2 | -1.4
CCOC(=O)CC1C(=O)NCCN1C1CCCC1 (stereo not given) | 8% | -1.8% | -15 | 1 | 0.8% | 0.7 | 3.5
COc1ccc(NC(=O)c2cc3c(=O)n(Cc4cccs4)ccc3nc2C)cc1 | . | -7.3% | 11 | . | 1.5% | 1.0 | .
CN(Cc1ccc(F)cc1)C(=O)c1cccc(S(=O)(=O)N2CCN(Cc3ccccc3)CC2)c1 | . | . | 4 | -2 | -3.5% | 3.1 | .
OCC[C@H]1C[C@@H](O)[C@H](O)[C@@]2(CCc3ccccc3CO2)O1 | . | 1.4% | -12 | 3 | -1.3% | -0.8 | .
CC(c1ccccc1)N1CC(C(=O)NC2CCCC2)CC1=O (stereo not given) | 15% | 4.3% | -18 | -27 | 3.5%[38.3 µM] | 3.9 | -1.4
COc1cc2nc(SCC(N)=O)n(CCC3=CCCCC3)c(=O)c2cc1OC | 11% | 7.3% | 4 | -12 | ? | 0.0 | 6.3
COc1ccc(N(C(=O)c2ccco2)C(C(=O)NC2CCCC2)c2ccc(N(C)C)cc2)cc1OC (stereo not given) | 10% | 0.7% | 18 | -3 | 1.1% | -0.7 | 2.4
CSc1ccc(CNc2ccc(C)c(C)c2)cc1 | ? | 1.0% | -3 | 0 | 2.8%[38.3 µM] | 1.4 | 0.8
Cc1ccc(C)c(N(C(=O)c2csnn2)C(C(=O)NC2CCCC2)c2cccnc2)c1 (stereo not given) | 2% | . | -6 | 2 | -0.9% | -0.1 | -4.3
CN=c1scc(-c2ccc(Br)cc2)n1C | 18% | ? | 37 | 12 | 1.6% | -0.6 | -1.3
CC(C)c1cc(=O)n2c(nc3ccccc32)[nH]1 | 9% | 4.1% | 13 | -4 | -2.3% | -0.8 | -3.1
Cn1c(=O)n(C)c2cc(N3CCOCC3)c(NC(=O)c3ccc(Cl)cc3)cc21 | . | -11% | -5 | . | 0.2% | 0.0 | .
CNc1cc(-c2ccc(CC#N)cc2)ncn1 | . | 4.7% | . | . | 2.4% | 0.3 | .
Cc1ccc(C(=O)Nc2ccn(C)n2)cc1 | . | 2.2% | -4 | 7 | 2.6% | 1.1 | .
NC(=O)C1c2ccccc2CSc2ccccc21 (stereo not given) | 5% | -0.9% | 9 | 4 | -0.4% | -0.6 | 0.7
O=C(O)COc1ccc(/C=N/n2cnc3scc(-c4cccs4)c3c2=O)cc1 | -25% | -9.8% | 0 | -15 | 1.5% | -0.1 | 0.8

Structures above that contain bromine, in the order listed:
SMILES | Sfp PPTase inh | ClpP mod | TRPML1 blocker | TRPV1 PAM | PINK1 modulator | TRPML1 ag | Menin-MLL FL inh
C/C(=N\NC(=O)c1ccoc1C)c1ccc(Br)s1 | 9% | -5.2% | -7 | -25 | 1.1% | 0.1 | .
CN=c1scc(-c2ccc(Br)cc2)n1C | 18% | ? | 37 | 12 | 1.6% | -0.6 | -1.3

Following part.
SMILES | Sfp PPTase inh | ClpP mod | TRPML1 blocker | TRPV1 PAM | PINK1 modulator | TRPML1 ag | Menin-MLL FL inh
CC(Sc1nnc(C(F)(F)F)n1C)C(=O)Nc1ccc(S(N)(=O)=O)cc1 (stereo not given) | 19% | -0.9% | -6 | 0 | 0.6% | -0.2 | -0.8
Cc1ccc(NC(=O)N2CCc3ccccc32)cc1C | 16% | . | -10 | 3 | 4.9% | -1.0 | -1.3
CCC(C)[C@H](N)c1nnc(SCC(=O)c2ccc(Cl)cc2)o1 (stereo not given in full) | -25% | -4.6% | -7 | 16 | 4.8%[38.3 µM] | 0.2 | -2.5
CC(C)N1CCC(C)(C(=O)Nc2cccc(Oc3ccccc3)c2)C1 (stereo not given) | . | 3.0% | . | . | 1.8% | -0.4 | .
OCC(O)/C=N/Nc1nc2ccccc2s1 (stereo not given) | -7% | . | -5 | 19 | 25% | -0.2 | 0.4
COc1ccc(N2C(=O)CSC23C(=O)Nc2ccccc23)cc1OC (stereo not given) | -1% | -0.7% | -4 | 8 | -2.9%[38.3 µM] | 0.6 | -0.4
CC[C@]12c3[nH]c4ccc(Cl)cc4c3CCN1C(=O)[C@@H](CC(=O)NC/C=C(\C)CCC=C(C)C)C[C@@H]2C(=O)N1CCN(C(=O)C2CC2)CC1 | . | 1.4% | -4 | . | 4.6% | 0.0 | .
O=C(CN1CCN(c2ccccn2)CC1)Nc1ccccc1 | -13% | -2.0% | ? | -11 | -0.5% | -0.5 | -1.0
CSc1ccccc1NC(=O)c1cc(-c2cccs2)on1 | -10% | -30% | 11 | 10 | 9.5%[38.3 µM] | 2.2 | 3.0
Cc1noc(C)c1S(=O)(=O)N1CCC(C(=O)NCCN2CCC(C)CC2)CC1 | 17% | 0.7% | 7 | 10 | -1.3% | -0.1 | 5.7
CC1CC(C(O)c2ccccn2)C(=O)C(C(O)c2ccccn2)C1 (stereo not given) | . | -0.2% | -9 | . | 1.8% | -0.4 | .
COCc1cc(C)c2c(N)c(C#N)sc2n1 | 14% | -18% | -14 | -5 | 1.3% | 1.1 | 0.3
Cc1ccc(OCCOCCN2CCN(C)CC2)c(C(C)(C)C)c1 | 50µM* | 2.5% | . | 2 | 0.4% | . | -0.8
CCOc1ncccc1C(=O)N(C)CC(=O)Nc1ccc(F)cc1 | 13% | -19% | -18 | 3 | 1.5% | -0.2 | -0.5
O=C(OCc1c(-c2ccccc2)ncc2ccccc12)c1cccc(Br)c1 | . | -18% | -9 | -4 | 5.2% | 5.2 | .
COc1ccc(CNC(=O)OC23CN(C(=O)OC(C)C)N(C(=O)OC(C)C)CC2(O)CN(S(=O)(=O)c2ccc(C)cc2)C3)cc1OC (stereo not given) | . | 3.2% | -2 | . | 2.4% | 0.5 | .
CS(=O)(=O)N(CC(=O)NCCSCc1ccccc1)c1ccccc1F | 18% | -1.6% | 7 | 2 | -0.6% | 0.7 | 0.2
Cc1c(C(=O)O)cccc1-c1ccc(C=O)o1 | -16% | -26% | -8 | -1 | -0.7% | 1.3 | 1.0
COC(=O)C1=NNC2C(=O)N(c3ccc(C)cc3)C(=O)C12 (stereo not given) | 9% | 1.6% | 0 | ? | -2.7% | 0.5 | -0.6
O=C(CCSCCC(=O)NCc1ccccc1)NCc1ccccc1 | 12% | 0.7% | 5 | 4 | . | 0.1 | -0.5
CCOC(=O)C1CCN(C(=O)CC(NS(=O)(=O)c2ccc(OC)cc2)C(C)C)CC1 (stereo not given) | -8% | 32µM* | 31 | 2 | 0.3% | -0.4 | 1.0
CC1(C(=O)NS(=O)(=O)c2ccccc2Cl)CCN1C(=O)Cc1cccc2ccccc12 (stereo not given) | . | -2.1% | . | . | 0.9% | 0.0 | .
O=C(NNC(=O)c1cc2ccccc2o1)c1ccc(Cl)cc1 | 7% | -0.7% | 25 | -14 | -0.7% | -0.4 | -0.3
FC(F)(F)c1ccc(Oc2ccc3cc(Br)ccc3c2)nc1 | 6% | -2.1% | ? | 3 | 10% | 3.3 | 4.0
O=C(c1ccc(Br)cc1)N1CCN(c2ncccn2)CC1 | . | . | -19 | . | 0.3% | 1.4 | .

Further entries:
SMILES | Sfp PPTase inh | ClpP mod | TRPML1 blocker | TRPV1 PAM | PINK1 modulator | TRPML1 ag | Menin-MLL FL inh
COc1ccc(C(=O)NC2CCN(C(=O)NC3CCCCC3)CC2)cc1 | 19% | 0.2% | -1 | 0 | -0.7% | 0.6 | 1.9
O=[N+]([O-])c1cc(/C=N/O)ccc1N1CCCC1 | 3% | . | 8 | 9 | 2.6% | 0.4 | -2.1
O=C(NCc1n[nH]c(=S)n1-c1ccc([N+](=O)[O-])cc1)c1ccc(S(=O)(=O)N2CCOCC2)cc1 | -1% | -4.0% | 0 | 4 | 0.9% | 0.5 | -1.1
Cc1ccc(OCC(O)CN2C(=O)NC(C)(C)C2=O)c(C)c1 (stereo not given) | 22% | -2.1% | 21 | -8 | -0.5% | 5.3 | 1.1
Cc1ccc(NC(=O)CCc2nnc3ccc(NCc4ccco4)nn23)cc1 | -3% | -2.3% | 0 | 1 | 0.3% | -1.0 | -1.6
COc1cccc(NC(=S)N(CCc2ccc(OC)c(OC)c2)Cc2ccccn2)c1 | 6% | . | 21 | 3 | -0.1% | 0.6 | -0.4

A stretch of the results above, as a working copy:
SMILES | Sfp PPTase inh | ClpP mod | TRPML1 blocker | TRPV1 PAM | PINK1 modulator | TRPML1 ag | Menin-MLL FL inh
COc1cc2nc(SCC(N)=O)n(CCC3=CCCCC3)c(=O)c2cc1OC | 11% | 7.3% | 4 | -12 | ? | 0.0 | 6.3
COc1ccc(N(C(=O)c2ccco2)C(C(=O)NC2CCCC2)c2ccc(N(C)C)cc2)cc1OC (stereo not given) | 10% | 0.7% | 18 | -3 | 1.1% | -0.7 | 2.4
